# Six1-Eya2 blk: Six1/Eya2 interaction inhibition. Q15475+O00167. AlphaScreen GST-Six1/His-Eya2 binding, biochemical; hits give low values; control for the full effect not named in the record. activity change, % (test concentration not listed). 360,000 tested, 0.56% active; in the data active = activity change below about -65%; inconclusive = about -30% to -65%; inactive = above about -30%; also: % is scaled to controls: 0 for no effect and ±100 for the full control effect; compound concentration not given in the record
# Target sequence (O00167 whole entry, looked up): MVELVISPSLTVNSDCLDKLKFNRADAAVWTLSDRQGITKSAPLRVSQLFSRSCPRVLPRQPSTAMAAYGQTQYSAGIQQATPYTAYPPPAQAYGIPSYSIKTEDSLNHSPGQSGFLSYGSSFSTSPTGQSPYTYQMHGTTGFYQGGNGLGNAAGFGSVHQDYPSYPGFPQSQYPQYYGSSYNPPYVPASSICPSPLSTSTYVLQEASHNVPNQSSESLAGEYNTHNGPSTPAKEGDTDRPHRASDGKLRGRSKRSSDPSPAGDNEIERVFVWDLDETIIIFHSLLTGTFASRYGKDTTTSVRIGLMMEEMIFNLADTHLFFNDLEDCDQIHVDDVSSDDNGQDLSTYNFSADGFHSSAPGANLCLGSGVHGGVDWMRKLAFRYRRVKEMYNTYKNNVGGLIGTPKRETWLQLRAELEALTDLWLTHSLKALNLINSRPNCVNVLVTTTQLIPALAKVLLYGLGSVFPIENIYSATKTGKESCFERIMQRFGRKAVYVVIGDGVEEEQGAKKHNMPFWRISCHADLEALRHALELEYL
# Target sequence (Q15475 whole entry, looked up): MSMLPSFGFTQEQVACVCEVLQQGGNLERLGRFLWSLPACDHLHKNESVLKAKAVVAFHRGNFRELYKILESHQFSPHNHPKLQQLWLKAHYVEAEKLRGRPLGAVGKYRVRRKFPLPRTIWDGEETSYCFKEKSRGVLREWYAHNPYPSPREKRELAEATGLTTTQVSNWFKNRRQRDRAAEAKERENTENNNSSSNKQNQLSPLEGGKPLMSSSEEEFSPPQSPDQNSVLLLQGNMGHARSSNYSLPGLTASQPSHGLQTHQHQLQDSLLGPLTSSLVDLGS
#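 GST-Six1 + His-Eya2 (5X stock: 250/500 nM); Tris pH 8.0, 300 mM NaCl, 0.05% BSA, 0.02% Tween 20; GSH donor/Ni acceptor beads; 1 h 37 °C dark; AlphaScreen readout.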
# D2 agonist: agonists of human D2 dopamine receptor (beta-arrestin); AID 624465; 360,000 tested, 0.084% active; activation, % (concentration not given with the values); DiscoveRx PathHunter D2 beta-arrestin, luminescence, 90 min; 100% = 57 uM dopamine signal; in the data active = activation above about 40%; inconclusive = about 15% to 40%; inactive = below about 15%; also: compound concentration not given in the record; the text of the record calls up to 30% inactive
#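 DiscoveRx PathHunter D2 beta-arrestin cells (2,100/well) attached overnight, then compound-stimulated 90 min at 37 C in HBSS/10 mM HEPES/0.1% Tween-20 buffer; beta-galactosidase complementation read by luminescence after 1 h at ambient temperature. Dopamine 57 uM final (EC100) as control.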
# TRPML1 ag: agonists of human TRPML1 channel; Q9GZU1; TRPML1-expressing cells, Ca2+ dye fluorescence, FDSS; host cell line not named in the record; reference of the full effect not given here; activation, % (concentration not given with the values); 410,000 tested, 0.12% active; AID 624414; in the data active = activation above about 50%; inconclusive = about 30% to 50%; inactive = below about 30%; also: 0% is about no effect; the text of the record puts the active cut at 80%
#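 Kinetic FDSS Ca2+ read in Tet-induced TRPML1-DL cells (ABD Ca8 dye plus quencher, 45-90 min RT loading): baseline, then compound, then 110 s agonist window; EC80 agonist 54-4 at 4uM final added afterwards for a 110 s antagonist window.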
# D2 PAM: potentiates the human D2 dopamine receptor allosterically. DiscoveRx D2 beta-arrestin cells, luminescence, 90 min; 100% = 57 uM dopamine signal. AID 624464. 360,000 tested, 0.23% active. potentiation, % (no concentration beside the values). P14416; active = potentiation of 50% or more; inconclusive = 30% to 50%; inactive = 30% or less;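 also: compound concentration not given in the record; tested on top of an EC20 dose of dopamine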
#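 D2 cells co-treated with compound plus 50 nM dopamine (EC20) for 90 min at 37 deg C to detect potentiation. Beta-arrestin recruitment was read as enzyme-fragment luminescence after 1 h at ambient temperature. Full response was set by 57 uM dopamine.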
# PINK1 modulator: changes PINK1 expression | 410,000 tested, 0.2% active | Potency, µM (titrated, usually from 76.6 µM), inactives show at the highest dose activation (PINK1 increase), usual class: activators | PINK1 immunofluorescence, high-content cytometry, 24 h; active = well fitted activation curve with a large enough effect; inconclusive = small, poorly fitted or top-dose-only effect; inactive = flat fitted curve, though single readings scatter; cell line not stated here;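 also: potency is read from the fitted curve at half-maximal effect; % of control where 0% means no effect; nearly all actives have a fitted effect of over 65% in size; a mitochondrial uncoupler was the plate control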
#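 Measures PINK1 amount and localization on or inside mitochondria by immunofluorescence. Stable cells get compounds at 5 concentrations for 24 hours before fixation and staining; CCCP controls included.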
# TRPML1 blocker: inhibitors of human TRPML1 channel; activity change, negative = inhibition, % (concentration not given with the values); 390,000 tested, 0.02% active; TRPML1-inducible cells, Ca2+ dye fluorescence, FDSS; hits give low values; inhibition of EC80 agonist-evoked calcium signal; Q9GZU1; in the data active means activity change below about -50%; inconclusive means about -30% to -50%; inactive means above about -30%;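 also: stimulus is agonist 54-4 at its EC80 concentration; % is scaled to controls: 0 for no effect and ±100 for the full control effect; compound concentration not given in the record; the text of the record puts the active cut at -80%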
#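 Calcium fluorescence in TRPML1-DL cells induced overnight with Tet: a 110 s read after compound pin addition, then a 110 s antagonist read after challenge with 54-4 at 4 uM final (EC80).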
# * = called active by the depositor; ? = inconclusive; nt = no result given; & = joins results of further samples; [ ] = dose if it differs, or a comment. Random draw from the library; about 1% have a hit in one of these screens.
SMILES,Six1-Eya2 blk,D2 agonist,TRPML1 ag,D2 PAM,PINK1 modulator,TRPML1 blocker
CN(Cc1ccccc1)S(=O)(=O)c1ccc(NC(=S)NC(=O)C2CCCC2)cc1,-5,-0.2,3.7,-13,-1.8%[38.3 µM],-6
C/C(=N\N=C(N)N)c1ccc(C)c(C)c1,3,-6.0,nt,-32,2.4%,nt
CCOC(=O)c1c(NC(=O)C2CC2)sc(C)c1CC,2,1.2,3.2,-8,9.8%,14
CN(Cc1ccc(Br)s1)C(=O)CNC(=O)c1ccc2c(c1)OCO2,-1,-0.2,2.5,2,-0.6%,2
Cc1ccc(NC(=O)CS(=O)CC(=O)N(CC(=O)NC2CCCC2)c2ccc3c(c2)OCCO3)cc1 (stereo not given),3,-4.5,-0.1,-11,-0.5%,8
Clc1ccc(Oc2cnc3ccccc3n2)cc1,33,-1.9,-1.1,-15,-1.4%,-10
Cn1nc(C(C)(C)C)c([N+](=O)[O-])c1C(N)=O,-3,0.3,1.5,-3,0.5%,-7
CC(=O)c1ccc(S(=O)(=O)Nc2ccc(-c3ccc(N4CCCCCC4)nn3)cc2)cc1,nt,nt,-0.9,nt,-0.2%,0
Cc1ccc(Oc2ccc(N)cc2)cc1,-12,-3.5,-0.2,-10,1.0%,4
NC(=O)c1ccc(-n2nc(C(F)(F)F)c3c2CCCC3)cc1,0,0.1,-0.6,-6,1.1%,4
NC(=O)c1ccsc1NC(=O)Cc1ccc([N+](=O)[O-])cc1,-2,4.1,-0.5,?,1.3%,-9
Cc1cc2cc(CN(Cc3cccs3)C(=S)NCc3ccco3)c(=O)[nH]c2cc1C,-18,-2.5,1.8,3,1.0%,-19
CCc1nc(N(CC)CC)c2oc3ccccc3c2n1,14,-3.3,0.5,-10,3.3%,27
CCOc1ccc(N(CC)C(=O)CCNC(=O)Cn2ccc3ccccc3c2=O)cc1,-1,-3.5,0.3,-3,-1.7%,-3
CN(C)S(=O)(=O)c1ccc(N2CCCC2)c(C(=O)Nc2nc3ccccc3s2)c1,-23,-1.3,-1.4,-25,1.8%,22
COc1ccccc1NS(=O)(=O)c1ccc(C)c(NC(=O)NC2CCCCC2)c1,-14,-5.6,0.5,-7,9.6%,2
CCOc1cc(N2CCOCC2)c(OCC)cc1NC(=O)COC(=O)c1ccccc1OC(F)F,0,-1.5,1.1,-15,10%,-13
CC(=O)c1cccc(S(=O)(=O)N2CCN(CCOc3ccccc3)CC2)c1,10,2.9,-1.1,-12,4.1%,19
Cc1noc(C)c1CSc1ncnc2ccccc12,8,2.3,1.0,10,-0.6%,16
CC1(C(=O)Nc2ccc(Cl)c(Cl)c2)CCN1Cc1ccccc1OC(F)F (stereo not given),12,-1.9,0.8,-2,17%,nt
CN(CC(=O)NC1CCCCC1)S(=O)(=O)c1ccc(Br)s1,11,-3.5,0.3,-5,3.4%,19
COC(=O)c1ccc(OC)c(Cn2c(=O)n(C)c(=O)c3sccc32)c1,-1,-3.8,-0.2,-1,3.4%,-3
O=C(CSc1nc(=O)n(CCCN2CCOCC2)c2c1CCC2)Nc1cccc(F)c1,-4,-2.6,-0.5,-6,0.2%,-6
CCCc1nc2oc3c(OCC)ncnc3c2c2c1COC(C)(C)C2,3,-0.9,-0.1,3,?,-11
O=c1oc2ccccc2cc1-c1nc(-c2cccs2)no1,nt,nt,-0.6,nt,0.3%,-8
C/C(N)=C(/C#N)C(=O)COC(=O)c1cccc2ccccc12,13,1.2,0.2,-9,0.0%,-29
Cc1ccc(NC(=O)c2c(NC(=O)CCC(=O)O)sc3c2CCCCC3)cc1,-7,-4.0,-0.3,-3,-0.6%,-7
CCOC(=O)c1ccccc1NC(=O)COC(=O)CN1C(=O)C2CC=CCC2C1=O (stereo not given),19,-5.5,1.5,-10,0.8%,-7
COc1ccc(CC(=O)NCCC(C)C)cc1S(=O)(=O)N1CCOCC1,-3,-5.2,-0.9,-33,0.0%,10
COc1ccc(NC(=O)COC(=O)CCC2CCCC2)c(OC)c1,4,0.7,5.3,0,0.1%,-7
COC(=O)[C@@]1(Cc2ccc(F)cc2)[C@H]2c3cc(C(=O)N(C)C)n(CCF)c3C[C@H]2CN1C(=O)c1ccccc1,-16,nt,2.2,nt,0.3%,nt
O=C(COc1ccccc1)NNc1nc2c(F)cc(F)cc2s1,5,1.1,2.3,5,-2.1%,23
CC(=O)Nc1ccc(S(=O)(=O)N(C)CC(=O)OC(C)C(=O)NC2(C#N)CCCCC2)cc1 (stereo not given),-4,-1.8,-0.5,-4,0.4%,1
O=C(CNc1ccc2ccccc2c1)NNC1=NCCC1,7,10,-0.4,-8,-2.1%,1
Cc1ccc(NC(=O)CSc2nnc(CSc3nc(C)cc(C)n3)n2Cc2ccco2)c(C)c1,-9,-3.5,0.7,-31,2.7%,-8
CCC(C(=O)NC1CCCC1)N(Cc1ccc2c(c1)OCO2)C(=O)c1snc(C(N)=O)c1N (stereo not given),5,-3.1,0.3,-14,-0.2%[38.3 µM],45
CC1=C(C(=O)N2CCCCC2)C(c2cccs2)C2=C(CCCC2=O)N1 (stereo not given),14,-3.9,-0.1,-7,1.7%,5
Cc1ccc(Cl)cc1N1CCN(C(=O)C2CCN(S(=O)(=O)Cc3ccccc3)CC2)CC1,nt,nt,-0.7,nt,2.3%,-11
CCOc1ccc(NC(=O)CN(C)C(=O)c2ccc(OCC(=O)N3CCOCC3)c(OC)c2)cc1OCC,-1,-4.0,0.9,3,1.0%,-4
COc1ccc(NC(C)=O)cc1S(=O)(=O)NCc1ccc2c(c1)OCO2,9,-2.6,-0.3,-20,-1.7%,-23
O=S(=O)(c1ccc(Cl)cc1)N1CCCc2ccccc21,26,1.0,2.7,-2,3.4%,83
CCOc1ccc(NC(=O)c2ccc(F)c(S(=O)(=O)N(CC)Cc3ccccc3)c2)cc1,nt,nt,1.7,nt,1.1%,-3
Cc1ccc(/C=N/N2CCN(Cc3cccc4ccccc34)CC2)o1,?,-3.4,1.2,-9,1.0%,-11
O=C(CCNc1ccc(Cl)cc1)c1cccs1,-2,-0.1,-0.1,-8,3.0%,1
COc1ccc(S(=O)(=O)N2CCC(Oc3ccc(-n4cnnn4)cc3)CC2)cc1,nt,nt,-0.4,nt,-0.4%,7
Cc1cnc(CN(C)C(=O)c2ccc3oc(Cc4ccccc4)nc3c2)[nH]1,-6,-4.1,0.6,-28,-0.4%,-5
O=C(Nc1cccc(F)c1)c1ccc(S(=O)(=O)NCC2CCCO2)cc1 (stereo not given),-3,2.5,0.9,-6,-1.1%[38.3 µM],13
CCOC(=O)N1CCN(C(=O)CNC(=O)c2nn(-c3ccc(OC)cc3OC)c(=O)c3ccccc23)CC1,0,-1.3,-0.5,-1,-0.9%,16
O=C(/C=C/c1cccc(Br)c1)NCc1ccncc1,1,-2.2,1.5,-14,0.2%,1
O=C(Nc1cccc(Cl)c1Cl)C1CCCO1 (stereo not given),-5,-0.6,-0.4,0,2.4%,5
Cc1nc2ccccc2c(=O)n1NC(=O)c1ccc(C(C)(C)C)cc1,9,0.7,4.1,-12,1.2%,29
Cc1ccn2c(Nc3ccccc3)c(-c3ccccn3)nc2c1,-74*,-4.7,1.5,-15,?,-4
CCCCCCC(=O)N(O)C1CC(=O)N(c2ccc(C)cc2)C1=O (stereo not given),-2,0.1,0.9,-14,nt,-4
Cc1cc(=O)n2[nH]c(=O)c(N=Nc3ccccc3)c2[nH]1,-21,-7.0,-0.9,-31,1.3%,1
COc1ccc(-c2cc(C(=O)NCCN3CCOCC3)c3cc(C(C)C)ccc3n2)cc1,-1,5.8,0.7,-3,1.2%,6
CCOc1ccc(Br)cc1S(=O)(=O)Nc1ccc(N2CCOCC2)cc1,-3,1.6,2.7,-3,1.2%,0
COc1ccc(CCN2CC(C(=O)N(C)Cc3cccnc3)CC2=O)cc1OC (stereo not given),5,0.5,4.7,-8,-1.6%,28
COc1cc2c(cc1OC)CN(C(=O)c1ccncc1)CC2,1,4.4,0.6,-5,0.4%,18
CN(C)CCN(Cc1ccccc1)S(=O)(=O)c1csc(C(N)=O)c1,0,-5.0,0.3&-0.8,-15,0.3%&0.7%,16&11
CC(/C=N/n1c(-c2ccco2)n[nH]c1=S)=C\c1ccccc1,-15,1.8,3.0,-6,-1.4%,-8

# The list goes on; the last four above are carried over.
SMILES,Six1-Eya2 blk,D2 agonist,TRPML1 ag,D2 PAM,PINK1 modulator,TRPML1 blocker
COc1ccc(CCN2CC(C(=O)N(C)Cc3cccnc3)CC2=O)cc1OC (stereo not given),5,0.5,4.7,-8,-1.6%,28
COc1cc2c(cc1OC)CN(C(=O)c1ccncc1)CC2,1,4.4,0.6,-5,0.4%,18
CN(C)CCN(Cc1ccccc1)S(=O)(=O)c1csc(C(N)=O)c1,0,-5.0,0.3&-0.8,-15,0.3%&0.7%,16&11
CC(/C=N/n1c(-c2ccco2)n[nH]c1=S)=C\c1ccccc1,-15,1.8,3.0,-6,-1.4%,-8
N=C1/C(=C\c2ccc(SCc3ccccc3)o2)C(=O)N=C2SC(CC(=O)N3CCOCC3)=NN12,-6,-5.3,1.1,-12,0.9%,4
Cc1c(Cl)c([N+](=O)[O-])nn1CC(=O)N1CCN(C23CC4CC(CC(C4)C2)C3)CC1,-1,-4.1,-0.4,0,-3.2%,-10
Cc1nnc(SCc2nc(N)nc(Nc3ccccc3)n2)s1,-12,-0.9,-0.5,-11,0.7%,-1
N#CCSc1nn(-c2ccc(F)cc2)c(=S)s1,-12,1.0,-1.1,-14,1.0%,5
Cc1cnc(NC(=O)c2cc3c(C)nn(Cc4ccccc4Cl)c3s2)s1,0,0.3,5.7,0,9.0%,5
COc1ccc(Cn2ccnc2SCC(=O)Nc2nnc(C)s2)cc1,5,1.6,0.4&2.1,-14,0.5%&-13%,8&7
COc1c(F)c(F)c(C(=O)O)c(Nc2ccccc2C)c1F,6,-0.4,0.1,-6,1.7%[38.3 µM],-26
O=C(O)c1nn(-c2ccccc2)c(-c2ccccc2)c1C(=O)c1ccccc1,21,3.1,-0.6,-2,-1.1%,-9
O=S(=O)(O/N=C1\CCCc2ccccc21)c1ccc(Cl)cc1,4,-1.0,-0.7,-13,-0.5%,12
COc1ccc(S(=O)(=O)NCc2ccc(C(=O)NCc3ccccc3)cc2)cc1,nt,nt,-0.4,nt,0.2%,7
CC(C)Oc1ccc(CNCC2(O)CCOC(C)(C)C2)cc1 (stereo not given),-1,1.1,0.5,-7,-0.2%,-13
Cc1ccc(S(=O)(=O)N2CCCC(C(=O)NC3=NCCS3)C2)cc1 (stereo not given),11,2.6,-0.3,-21,8.8%,59
CCN(c1cccc(C)c1)S(=O)(=O)c1c(C)[nH]c(C)c1C(=O)N1CCCCC1,0,-3.4,0.0,-4,0.3%,-11
Cc1nn(-c2ccccc2)c2[nH]c(=O)c(CNc3ccc4c(c3)OCCO4)cc12,?,-12,-0.1,0,2.3%,-11
CSc1ccccc1NC(=O)c1cc(-c2ccc3c(c2)OCO3)on1,6,-4.1,-0.2,-6,16%,4
O=C(COc1ccc(S(=O)(=O)N2CCOCC2)cc1)NCCN1CCOCC1,1,-1.0,-0.3,-1,2.8%,-3
